Screens deposited in PubChem by National Center for Advancing Translational Sciences (NCATS).
VDR inhibitor: blocks the human vitamin D receptor. P11473. VDR-SRC2-3 peptide fluorescence polarization, 2 h. Potency, µM, for the others: max response, negative = inhibition, usual class: inhibitors. 400,000 tested, 0.93% active; active = well fitted inhibition curve with a large enough effect; inconclusive = small, poorly fitted or top-dose-only effect, or another doubt; inactive = no such curve, though single readings can be large or run the other way; also: series mostly up to about 120 µM
Target sequence (P11473 whole entry, looked up): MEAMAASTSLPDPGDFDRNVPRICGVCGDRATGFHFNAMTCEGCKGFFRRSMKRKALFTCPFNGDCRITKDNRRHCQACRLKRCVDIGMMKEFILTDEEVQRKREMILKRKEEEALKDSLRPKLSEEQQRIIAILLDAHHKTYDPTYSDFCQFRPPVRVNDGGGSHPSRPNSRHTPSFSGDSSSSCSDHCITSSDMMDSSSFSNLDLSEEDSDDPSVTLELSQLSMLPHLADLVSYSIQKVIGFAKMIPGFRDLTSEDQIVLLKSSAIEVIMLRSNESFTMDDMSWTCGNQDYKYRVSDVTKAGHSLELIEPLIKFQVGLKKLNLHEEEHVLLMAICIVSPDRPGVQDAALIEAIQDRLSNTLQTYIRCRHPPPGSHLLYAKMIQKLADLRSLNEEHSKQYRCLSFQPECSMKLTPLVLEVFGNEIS
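Fluorescence polarization assay measuring small-molecule disruption of VDR binding to the coregulator peptide SRC2-3. Compounds were pin-transferred (23 nl) into the reagent mix and incubated 2 h at room temperature before reading.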
Starred values were filed as active, the others as inactive; ? = inconclusive; & = joins results of further samples. % is scaled to controls: 0 for no effect and ±100 for the full control effect; potency is read from the fitted curve at half-maximal effect. An excerpt; the hit share may differ from the screen's.

VDR inhibitor	molecule
5%	N#Cc1c(NC(=O)CN2C(=O)c3ccccc3C2=O)oc(-c2ccccc2)c1-c1ccccc1
4%	Cc1ccc(S(=O)(=O)Nc2ccc3c(c2)nc2n3CCN(Cc3ccccc3)C2)cc1
-18%	Cc1[nH]c2ccccc2c1Cc1nnc(SCc2ccccc2)o1
-4%	O=C(CSc1nc(-c2ccco2)nc2cc(=O)[nH]n12)Nc1ccc(F)cc1
2%	O=C(CSc1nc2c(c(=O)[nH]1)CN(Cc1ccc3c(c1)OCO3)CC2)Nc1ccc(F)cc1
-18%	Cc1ccc(C)c(CSC2=NCCN2C(=O)c2cccs2)c1
-11%	CCCNC(=S)Nc1ccc(Oc2ccccc2)cc1
-15%	Cc1cccc(NC(=O)CSc2nnc(-c3ccco3)o2)c1C
-2%	CCN(CC)S(=O)(=O)c1cc(C(=O)Nc2cc(C)[nH]n2)ccc1Cl
-20%	COc1ccccc1CCNC(=O)C(=O)Nc1cc2c3c(c1)CC(=O)N3CCC2
4%	CCC(=C(c1ccc(OC)cc1)c1ccc(OC)cc1)c1cn(CC(O)CN(CCO)CCO)c2ccccc12 (centres undefined)
22%	Cc1cc(NC(=O)CCC(=O)N(Cc2ccccc2)C2(C(=O)NC3CCCCC3)CCCC2)no1
-21%	N#CCCn1cc(C(=O)Nc2ccc(C(=O)O)cc2)c(-c2cccc(Br)c2)n1
15%	CC(=O)N1CCN(C(=O)COC(=O)c2oc3ccccc3c2C)CC1
0%	Cc1ccc(S(=O)(=O)N2CCCC2C(=O)Nn2cnnc2)cc1 (centres undefined)
1%	Cc1cc(C)n(CCNC(=O)CCc2nnc(CCc3ccccc3)o2)n1
?	CC(/C=N/n1c(-c2cc(C)[nH]n2)n[nH]c1=S)=C\c1ccccc1
-13%	N#Cc1c(-n2ncnc2-c2ccccc2C(F)(F)F)sc2c1CCCCC2
-11%	CCOc1ccc(/C=C2\SC(N3CCCCC3)=NC2=O)cc1
10%	O=C(Nc1cc(-c2ccccc2)nn1-c1c(Cl)cccc1Cl)c1ccc(F)cc1
0%	CCCCC(Sc1nc(N)c(NC(=O)c2ccco2)c(=O)[nH]1)C(=O)O (centres undefined)
-7%	CC(C)CNC(=O)NC(=O)COC(=O)c1ccccc1Sc1ccc(C(F)(F)F)cc1[N+](=O)[O-]
4%	O=C(c1ccccc1)c1ccc(OC(=O)N2CCOCC2)cc1
-9%	C#Cc1ccc([C@H]2C=C(C(=O)N3CCN(Cc4ccccc4)CC3)O[C@@H](OCc3ccc(CO)cc3)C2)cc1

Four entries from above in another layout.
Cc1ccc(S(=O)(=O)Nc2ccc3c(c2)nc2n3CCN(Cc3ccccc3)C2)cc1
  VDR inhibitor = 4%
Cc1[nH]c2ccccc2c1Cc1nnc(SCc2ccccc2)o1
  VDR inhibitor = -18%
O=C(CSc1nc(-c2ccco2)nc2cc(=O)[nH]n12)Nc1ccc(F)cc1
  VDR inhibitor = -4%
O=C(CSc1nc2c(c(=O)[nH]1)CN(Cc1ccc3c(c1)OCO3)CC2)Nc1ccc(F)cc1
  VDR inhibitor = 2%

Taken from the listing for reference:
VDR inhibitor	molecule
-7%	CC(C)CNC(=O)NC(=O)COC(=O)c1ccccc1Sc1ccc(C(F)(F)F)cc1[N+](=O)[O-]
4%	O=C(c1ccccc1)c1ccc(OC(=O)N2CCOCC2)cc1
-9%	C#Cc1ccc([C@H]2C=C(C(=O)N3CCN(Cc4ccccc4)CC3)O[C@@H](OCc3ccc(CO)cc3)C2)cc1

The list continues:
VDR inhibitor	molecule
11%	O=C(CCCN1C(=O)/C(=C\c2cccs2)SC1=S)NNC(=O)c1cccnc1
4%	Cc1onc(-c2c(Cl)cccc2Cl)c1C(=O)NCCc1ccc(S(N)(=O)=O)cc1
8%	COc1ccccc1CC(=O)Nc1cccc(C(=O)NN2C(=O)c3ccccc3C2=O)c1
-14%	N#Cc1c(C(F)(F)F)cc(Cc2ccccc2)nc1SCC(=O)NCC(=O)O
19%	Cn1ccnc1SCC(=O)NC1CCCCC1
12%	COCCCNC(=O)C(=O)Nc1ccc2c(c1)N(S(=O)(=O)c1cccs1)CCC2
5%	O=C(Nc1nc(-c2ccc3ccccc3c2)cs1)c1ccc(N2C(=O)CCC2=O)cc1
3%	Cc1ccc(-c2cc(=O)c3cc(Cl)ccc3[nH]2)cc1
5%	Cn1c(=O)c(-c2cccs2)nc2cncnc21
2%	O=C(COC(=O)C1CC1)NC(=O)NCc1ccccc1
-4%	COCCOC(=O)C1=C(C)NC2(O)c3ccccc3C(=O)C12O (centres undefined)
3%	Cc1c(NC(=S)N/N=C/C=C/c2ccccc2)c(=O)n(-c2ccccc2)n1C
17%	COc1ccc2c(=O)c(-c3cnn(-c4ccccc4)c3)c(C)oc2c1
5%	COc1ccc(CN2CCc3ccccc3C2)cc1Br
23%	CCCCCC(=O)Nc1cc(S(=O)(=O)N2CCOCC2)ccc1N1CCN(C)CC1
-5%	O=C(NNC1=C(C(=O)C(F)(F)F)CCC1)c1cccc(Cl)c1
-4%	COc1ccc(N=Cc2cc(Cc3ccccc3Cl)cc([N+](=O)[O-])c2O)cc1OC
-5%	CCOC(=O)N/N=C/c1ccc(Oc2ccccc2)cc1
-2%	CCCn1c2c(c(O)c(C(=O)Nc3nccs3)c1=O)CCCC2
11%	Clc1ccc(-c2cnc(Oc3ccccc3)nc2)cc1
-12%	COCCCNC(=O)/C(C#N)=C/c1cc(C)[nH]c1C
-9%	CC1(C)SC2C(N3C(=O)C(c4ccccc4)NC3(C)C)C(=O)N2C1C(=O)O (centres undefined)
-6%	COCCCNC(=O)/C(C#N)=C/c1c(N2CCN(C)CC2)nc2c(C)cccn2c1=O
-9%	COC(=O)N1CCN(c2ccc(C)cc2)C(C)C1 (centres undefined)

Among those listed so far, 4 have a CF3 group:
VDR inhibitor	molecule
-13%	N#Cc1c(-n2ncnc2-c2ccccc2C(F)(F)F)sc2c1CCCCC2
-7%	CC(C)CNC(=O)NC(=O)COC(=O)c1ccccc1Sc1ccc(C(F)(F)F)cc1[N+](=O)[O-]
-14%	N#Cc1c(C(F)(F)F)cc(Cc2ccccc2)nc1SCC(=O)NCC(=O)O
-5%	O=C(NNC1=C(C(=O)C(F)(F)F)CCC1)c1cccc(Cl)c1

Later entries
VDR inhibitor	molecule
4%	C/C(=N\OCC(=O)NC(C)C)c1cccs1
-14%	O=C(Nc1ccc(Cl)cc1)N[C@@H]1c2c(ccc3ccccc23)OC[C@@H]1CO
-6%	O=C(O)CCNC1CCCCC1
-7%	CC(=O)c1ccc(S(=O)(=O)N2CCN(c3ccccc3F)CC2)cc1
4%	CCN1CCN(C(=S)Nc2ccc(Cl)cc2)CC1
-1%	CCCN(CC(=O)Nc1ccc(F)c(F)c1F)C(=O)c1ccc2c(c1)NC(=O)CS2
-4%	CC(=O)c1ccccc1NC(=O)COC(=O)c1cc[n+]([O-])cc1
-18%	N#Cc1cccc(NC(=S)Nc2ccccc2)c1
-10%	COc1cccc(CNC(=O)c2cnc(N3CCCC3)nc2C)c1
?	CCOc1ccc(NC(=O)C(=O)NCCN2CCN(S(=O)(=O)c3ccccc3)CC2)cc1
10%	Cc1ccc2c(c1)c1c(c(=O)n(-c3cccc(Cl)c3)c(=O)n1CC(=O)c1ccc(Cl)cc1)n2C
-6%	CN(Cc1ccccc1)S(=O)(=O)c1ccc(Cl)c(C(=O)NCCCN2CCOCC2)c1
0%	Cc1sc2c(c1C)c(=O)n(-c1cccc(C(F)(F)F)c1)c(=O)n2Cc1ccccc1C#N
-6%&-6%&15%	COc1ccc2c(c1OC)C(=O)OC2C1c2c(cc3c(c2OC)OCO3)CCN1C (centres undefined)
-10%	C#CCCC(=O)c1ccccc1/C=[N+](\[O-])c1ccccc1
-13%	CCN(C(=O)c1ccccc1F)c1nc(-c2ccc(OC)cc2)cs1
4%	O=C(NCc1ccccc1)c1ccc2ccccc2n1
-5%	CCN(CC)C(=O)CN1C(=O)c2cccc3cccc1c23
-2%	O=C(NCCCn1ccnc1)c1cnn2c1NC(c1ccccc1)CC2C(F)(F)F (centres undefined)
-8%	COC(=O)C1=C(C)N(CC2CC2)C(=NCCN2CCOCC2)N[C@H]1c1ccccc1
6%	O=C(NCCc1ccccn1)c1nc(Cn2cc([N+](=O)[O-])cn2)no1
0%	CC(C)(C)c1nnc(NC(=O)Nc2ccc(Cl)cc2)s1
-7%	O=C(COC(=O)CC1CC2CCC1C2)NC(=O)NC1CCCC1 (centres undefined)
-3%	COc1ccc(C)cc1Nc1nc(-c2ccccc2O)nc2ccccc12
5%	Cc1ccc(NS(=O)(=O)c2c(F)cc(F)c(Cl)c2F)cc1S(=O)(=O)N1CCOCC1
-8%&-17%	O=C(O)c1cccc(Nc2ncnc3ccc(Br)cc23)c1
3%	CCOc1ccc(NC(=O)COC(=O)c2ncc(Cl)c(Cl)c2Cl)cc1
-11%	CCOC(=O)C1CCN(C(=O)Nc2cccc(Cl)c2)CC1
-17%	Cc1cc(C(=O)Nc2ccc(S(=O)(=O)N3CCCC3)cc2)no1
-3%	Nc1ccc(S(=O)(=O)NC2(C(F)(F)F)NC(=O)N(c3ccccc3F)C2=O)cc1 (centres undefined)
-12%	COc1ccc(NC(=O)CCCc2ccccc2)c(OC)c1
-10%	COc1ccc(NC(=O)NCCCN2CCc3ccccc3C2)cc1
-7%	COc1ccc2cc(Br)ccc2c1CC(=O)NC1CC(C)(C)NC(C)(C)C1
7%	Cc1ccc(OCCSc2nc3ccccc3n2CC(=O)N2CCCCC2)c(C)c1
-5%	Cc1[nH]n(-c2ccccc2)c(=O)c1/C=C1\C=NN=C1c1ccccc1
-5%	O=C(NC1CCCN(Cc2ccc(Cl)cc2)C1)c1cccc(F)c1 (centres undefined)
4%	Cc1cccnc1CCNCc1c(C(=O)N2C[C@@H](C)O[C@@H](C)C2)nc2ccc(Cl)cn12
-20%	COC(=O)c1ccc(Cl)c(NC(=O)CN(c2ccc(OC)c(OC)c2)S(C)(=O)=O)c1
-22%	CSc1ccccc1NC(=O)c1cc2ncc(Br)cn2n1
7%	CC(=O)Cn1c(N2CCC(Cc3ccccc3)CC2)nc2c1c(=O)[nH]c(=O)n2C
13%	CCCNC(=O)c1cc(Cl)c(NC(=O)C2=CSCCO2)cc1OC
4%	COc1ccc(CN2CCN(CCCc3ccccc3)C(CCO)C2)c(OC)c1 (centres undefined)
2%	Fc1cccc(CCN2CCNC[C@H]2Cc2cccc3ccccc23)c1
10%	Cc1[nH]c2ccccc2c1SCC(=O)O
-2%	O=C(NCc1cc([N+](=O)[O-])ccc1O)c1cccc(NS(=O)(=O)c2ccccc2)c1
3%	O=C(Oc1ccccc1-c1nnco1)c1ccc(Cl)cc1
-8%	CCc1ccc(C(=O)CSc2n[nH]c(-c3ccncc3)n2)cc1
-17%	CCc1cc(C(=O)N2CCCC(CCC(=O)N3CCN(c4ccccn4)CC3)C2)no1 (centres undefined)
5%	Cc1ccc(/C=N/NC(=O)c2cccc(S(=O)(=O)Nc3ccccc3Cl)c2)s1
4%	O=C(c1ccc2c(Cl)c3c(nc2c1)CCCC3)N1CCN(c2cccc(C(F)(F)F)c2)CC1
4%	Cc1ccc(/C=N/NC(=S)Nc2cccc(S(=O)(=O)N(C)C)c2)o1
-5%	CCC(Oc1ccccc1)C(=O)Nc1ccccn1 (centres undefined)
-9%	CC1CC(C)(C)N(C(=O)CN2CCN(C)CC2)c2ccccc21 (centres undefined)
-19%	C=C1CCN([C@H](C(=O)NCc2ccc(Cl)c(Cl)c2)C(C)C)S(=O)(=O)c2ccccc21
-8%	CN(C(=O)COC(=O)c1cc(NS(=O)(=O)c2cc([N+](=O)[O-])ccc2Cl)ccc1O)C1CCCCC1
6%	Cc1cc(C(=O)COC(=O)CNC(=O)c2ccccc2)c(C)n1CC1CCCO1 (centres undefined)

Following part
VDR inhibitor	molecule
?	COc1ccc(O)c(CNc2ccccc2F)c1
-3%	O=C(Nc1ncccc1O)c1ccc(S(=O)(=O)N2CCCC2)cc1
-3%	CC(=O)N1C(=O)c2cccc3cccc(c23)C(=O)N1C(C)=O
8%	CCN(CC(=O)NCc1cccs1)CC(=O)Nc1c(Cl)ccc(C)c1Cl
0%	CCN(C(=O)COC(=O)c1c(NC(C)=O)sc(C)c1C)c1c(N)n(Cc2ccccc2)c(=O)[nH]c1=O
17%	CC(=O)N(Cc1cccnc1)c1nc2c(C)c(C)ccc2s1
4%	Cc1ccc2nc(-c3ccc(NC(=S)NCC(C)(C)CN(C)C)cc3)sc2c1
17%	CN(C(=O)c1c[nH]c(=O)cc1C(F)(F)F)c1ccc(Cl)cc1
40µM*	COc1ccc(-c2cc(C(F)(F)F)nc(S(C)(=O)=O)n2)cc1
-1%	CC(=O)N1c2ccc(S(=O)(=O)NCC3CCC(C(=O)NCc4ccccc4)CC3)cc2CC1C (centres undefined)
-2%	CC(C)Cc1nc2oc3c(=O)[nH]cnc3c2c2c1CCCC2
-3%	COc1cc2ccccc2cc1C(=O)Nc1nc(C)c(C(C)=O)s1
-7%	COc1ccc(CCn2c(=O)c3cccnc3n(CC(=O)Nc3ccc(C)cc3C)c2=O)cc1OC
-7%	O=C(Nc1ccc(S(=O)(=O)Nc2ncccn2)cc1)c1ccccc1NS(=O)(=O)c1ccc(F)cc1
0%	COc1cccc(NC(=O)Nc2cccnc2)c1
15%	C[C@]12CC[C@H](O)CC1=CCC1C2CC[C@@]2(C)C1CC[C@@H]2NC(=O)[C@@H](N)CO (some centres undefined)
-10%	COC(=O)c1cc(CSc2nc3ccc(C)cc3[nH]2)oc1C
-7%	COc1ccccc1N1CCN(C(=O)c2ccc(Cn3c(=S)[nH]c4cc5c(cc4c3=O)OCO5)cc2)CC1
5%	Cc1nn(Cc2c(F)c(F)c(F)c(F)c2F)c(C)c1NC(=O)c1ccc(COc2ccc(F)cc2)o1
